AID504770: growth inhibition of E. coli YBA685, primary screen, V. cholerae RctB inhibitors. E. coli YBA685 rctB-dependent plasmid, OD600 growth, 3 h; active compounds read low. z-score (concentration not given with the values). 130,000 tested, 0.27% active;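 active means z-score under -2 on both plates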;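 further: wells of about 30 µL received 100 nL stock; score is relative to mean and SD of the test wells; the first replicate is given; strong numbers were not always called active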
Ba CapD inh: Bacillus anthracis CapD inhibitors, primary screen, biochemical, fluorescence intensity; CapD gamma-glutamyltranspeptidase (Bacillus anthracis Ames Ancestor); purified CapD enzyme, fluorescence intensity read-out; active compounds read low; some hits fall short of the stated cut; z-score (test concentration not listed); 140,000 tested, 0.23% active; AID 492967, 2010;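 active means z-score under -4 in either of two replicates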;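 further: stock transfer was 100 nL into about 40 µL; score is relative to mean and spread of the plate; one replicate is shown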
The depositor's hits bear a star; / = no result given; & = joins results of further samples.

The line under a structure holds: AID504770 | Ba CapD inh
> COc1ccc(-c2nc3ccccc3c(=O)[nH]2)cc1
→ 3 | 33
> NC(=O)c1ccc([N+](=O)[O-])o1
→ / | -0.39
> Cc1cc(C)nc(Nc2ccccc2)n1
→ / | -0.59
> N#CCC1c2ccccc2CCN1C(=O)Nc1cccc(C(F)(F)F)c1 (stereo not drawn)
→ / | 0.09
> N#Cc1cccc(C#N)c1Oc1ccc(S(=O)(=O)N2CCCCC2)cc1
→ -0.25 | 0.21
> CC(=C\C(=O)O)/C(=C/c1ccccc1)C(=O)O
→ 0.8 | -0.015
> COc1ccc(CC(=O)Nc2ccc(-c3nnc4n3CCCCC4)cc2)cc1
→ -0.7 | 0.32
> Cc1ccc(NC(=O)CSC2=C(C#N)C(c3ccc(C(C)C)cc3)CC(=O)N2)cc1 (stereo not drawn)
→ / | -0.34
> Cn1nc(C(F)(F)F)cc1-c1ccc(C=C(C#N)C#N)s1
→ -0.35 | 0.18
> Cn1c(C=Nc2ccc(Cl)cc2)nc2ccccc21
→ -0.15 | /
> CCOC(=O)CC1(N)CCCCC1
→ 1.1 | /
> O=C(N/C(=C\c1ccco1)C(=O)N1CCN(C/C=C/c2ccccc2)CC1)c1ccccc1
→ / | -0.52
> COc1ccc(C2C3=C(CC(C)(C)CC3=O)Nc3c2c(=O)[nH]c2nc(C)nn32)cc1 (stereo not drawn)
→ 1.7 | /
> O=C(CCN1C(=O)c2ccccc2C1=O)Nc1ncn[nH]1
→ -0.65 | -0.27
> CCCOc1cccc(C(=O)O)c1
→ 0.5 | 0.2
> COC(=O)c1onc(C(=O)c2ccccc2)c1C(=O)OC
→ -0.7 | 0.05
> Cn1c2c(c(=O)[nH]c1=O)C(c1ccc(O)cc1)C1=C(N2)c2ccccc2C1=O (stereo not drawn)
→ / | 0.7
> Cc1ccc2c(CN(C)CCC#N)cc(=O)oc2c1
→ -1.4 | -0.42
> Cc1cc(/C=c2\sc3nc4ccccc4n3c2=O)c(C)n1C(C)C
→ 0.95 | -0.39
> COC(=O)C1=C(C)NC(C)=C(C(=O)OC)C1C(=O)OCC(=O)c1cc(C)n(-c2nccs2)c1C
→ 0.9 | /

New compounds follow.
The line under a structure holds: AID504770 | Ba CapD inh
> COc1ccc(N2CC(C(=O)Oc3coc(CSc4ncccn4)cc3=O)CC2=O)cc1 (stereo not drawn)
→ 0.45 | /
> N#Cc1ccsc1NC(=O)CCCSc1nc2ccccc2[nH]1
→ -0.35 | /
> COc1cc(C(CC(=O)O)CC(=O)Nc2ccc(C)cc2)cc(OC)c1OC (stereo not drawn)
→ 0.8 | 0.4
> CCCCCC(=O)N1c2ccccc2C(N(C(=O)c2cccc(OC)c2)c2ccccc2)CC1C (stereo not drawn)
→ / | 0.17
> Cc1sc2c(=O)n3c(nc2c1C(=O)NC1CCCCC1)CCCCC3
→ 3.3 | 1.4
> Cc1cnc(C(=O)OCC(=O)N2CCCc3ccccc32)cn1
→ -0.6 | /
> CC(C)(C)c1ccc(CN2CCN(C(=O)c3ccc(-n4nc(-c5ccccc5)cc4-c4ccccc4)cc3)CC2)cc1
→ / | -0.08
> OC(CNCc1ccc2c(c1)OCO2)CSc1cccs1 (stereo not drawn)
→ -0.35 | 1
> CCn1c(COC(=O)Cn2c(=O)oc3ccccc32)nc2cc(S(=O)(=O)N(C)C)ccc21
→ 0.55 | /
> CCCNC(=O)Cn1cnc2sc(C(=O)NC(C)CC)c(C)c2c1=O (stereo not drawn)
→ 0.6 | -0.54
> C=CCOc1ccc(C(=O)n2cc(Br)cn2)cc1
→ 0.2 | -0.26
> O=c1oc(-c2ccco2)nc2cccc(F)c12
→ 0.1 | 0.23
> CC(C)c1ccc(/C=C2/SC(=S)N(CN3CCCC3)C2=O)cc1
→ / | -1.5
> O=C(Cn1nnc2c(cnn2-c2ccccc2)c1=O)N(c1ccccc1)c1ccccc1
→ 0.6 | /
> O=[N+]([O-])c1ccc(N2CCN(c3ncnc4ccccc34)CC2)cc1
→ / | 0.33
> CC(C)CNc1nc(=S)nc(N(C)C)[nH]1
→ 0.55 | -0.15
> O=S(=O)(/C=C/c1ccccc1)N1CCc2ccccc21
→ 1.1 | -0.55
> CCN(CC)P(=N)(N(CC)CC)N(CC)CC
→ 0.4 | /
> CNC(=O)COc1cccc2c1OC(C)(C)C2
→ 1.4 | /
> Cc1ccccc1NC(=O)c1ccc2nc(C)c(C)nc2c1
→ -0.45 | 0.05

Single values from above.
Reading of CC(C)CNc1nc(=S)nc(N(C)C)[nH]1 under Ba CapD inh: -0.15
Reading of O=C(Cn1nnc2c(cnn2-c2ccccc2)c1=O)N(c1ccccc1)c1ccccc1 under AID504770: 0.6
Reading of O=S(=O)(/C=C/c1ccccc1)N1CCc2ccccc21 under Ba CapD inh: -0.55
Reading of CC(C)(C)c1ccc(CN2CCN(C(=O)c3ccc(-n4nc(-c5ccccc5)cc4-c4ccccc4)cc3)CC2)cc1 under Ba CapD inh: -0.08

Additional results.
The line under a structure holds: AID504770 | Ba CapD inh
> Cc1nc2scc(C)n2c1/C=N/NC(=O)CSc1cccc2cccnc12
→ 0.7 | /
> Cc1cc2nnc(C(=O)O)c(C)n2n1
→ / | -0.9
> O=C(CNc1ccccc1C(=O)NCc1ccco1)Nc1ccc2c(c1)OCCO2
→ -0.35 | /
> O=C(COc1ncnc2ccccc12)NC1CCCCCC1
→ 0.7 | -0.085
> O=C(CC(c1ccccc1)c1ccccc1)N1CCN(Cc2ccc3c(c2)OCO3)CC1
→ -1.1 | /
> CCCc1n(CC(=O)C(C)(C)C)c2ccccc2[n+]1C
→ 0.35 | 0.075
> CC(OC(=O)C1CC(=O)N(CCc2ccccc2)C1)C(=O)Nc1ncc(Cl)cc1Cl (stereo not drawn)
→ 1.1 | /
> CCNS(=O)(=O)c1ccc(Br)c2ccccc12
→ -0.55 | -0.25
> COc1cc(C(=O)NC(C)c2nc3ccccc3[nH]2)cc(OC)c1OC (stereo not drawn)
→ -0.65 | 0.58
> COC(=O)c1cc(OC)c(OC)c(OC)c1-n1c(C)cc(C(N)=O)c1C
→ -0.25 | /
> Cc1ccccc1OC1C(=O)N(CCc2ccc(F)cc2)C1c1ccc2c(c1)OCO2 (stereo not drawn)
→ -0.05 | -0.81
> COCC(C)N=C1NN=C(c2cc(C)n(-c3c(C)n(C)n(-c4ccccc4)c3=O)c2C)CS1 (stereo not drawn)
→ -0.05 | /
> Cc1cccc(Cl)c1-c1nn[nH]n1
→ 1.8 | -0.38
> CCCCSc1nc(C)cc(C)c1S(=O)(=O)c1ccccc1C
→ / | -0.085
> Cc1ccc(-c2[nH]nc3c2C(c2ccc(N4CCOCC4)c([N+](=O)[O-])c2)C(C#N)=C(N)O3)cc1 (stereo not drawn)
→ / | -0.97
> CCOC(OCC)c1ccc(/C=C/C(=O)c2ccc(Br)cc2)cc1
→ / | -0.06
> NC(=S)NCc1ccco1
→ / | -0.29
> CC1CCCC(NC(=O)COC(=O)/C=C/c2ccco2)C1C (stereo not drawn)
→ 1.1 | -1.2
> CNc1ccc(S(=O)(=O)O)cc1
→ / | -0.3
> CCC1CCCCN1C(=O)CSc1nc2ccccc2c(=O)n1CCC(=O)N1CCN(c2ccccc2)CC1 (stereo not drawn)
→ / | 0.005

(further entries)
The line under a structure holds: AID504770 | Ba CapD inh
> O=C(NCc1ccc(Cl)c(Cl)c1)c1c[nH]c2ccccc12
→ -0.95 | -0.4
> Cc1c(C(=O)N2CCC(C(=O)N3CCN(c4ccccc4)CC3)CC2)oc2cc3sc(N(C)C)nc3cc12
→ 0.05 | 5.3
> Cc1cc(C)cc(-n2c(C)cc(/C=C3\SC(=O)NC3=O)c2C)c1
→ 0 | -0.23
> COc1cc(C(CC(=O)O)CC(=O)Nc2cc(C)on2)cc(OC)c1OC (stereo not drawn)
→ / | -0.18
> COc1cccc(C2Sc3ccccc3NC3=C2C(=O)c2ccccc23)c1 (stereo not drawn)
→ / | -0.99
> CNC(=O)O/N=C/c1nn(C)cc1Br
→ 0.7 | -0.06
> CN(Cc1ccccc1)C(=O)CSc1nc2ccc(Br)cc2c2nc3ccccc3n12
→ -0.95 | 0.24
> Nc1nc(-c2ccco2)nn1S(=O)(=O)c1ccccc1
→ 0.75 | /
> CCC(C)NC(=O)CSc1ccc(S(=O)(=O)N2CCN(Cc3ccccc3)CC2)cn1 (stereo not drawn)
→ -0.6 | /
> COc1ccc(-c2nsc3c(N4CCCCC4C)ncnc23)cc1 (stereo not drawn)
→ -0.95 | /
> CC1(C)CC(=O)c2cc(OCC(=O)NC3CCCC3)ccc2O1
→ -0.45 | -0.38
> Cc1ccccc1Nc1nc(NCc2ccco2)c2ccccc2n1
→ / | 22
> COc1ccc(NS(=O)(=O)c2ccc3c(c2)OCC(=O)N3)cc1
→ 1.9 | -0.36
> O=C(OCCN1CCN(Cc2cc3ccccc3o2)CC1)N1CCN(c2ccccc2F)CC1
→ / | -0.61
> O=C1CS(=O)(=O)CC(=O)N1c1ccc(Cl)c(Cl)c1
→ -0.55 | -0.43
> COc1ccc2[nH]c(=O)c(CN(c3ccccc3)S(=O)(=O)c3ccccc3)cc2c1
→ -0.65 | 21
> COc1ccc(CN2C(=O)C3C(c4ccccc4)OC4(C(=O)c5ccccc5C4=O)C3C2=O)cc1 (stereo not drawn)
→ / | -0.69
> C=CCNC(=O)Cc1ccccc1OC
→ -0.7 | 0.35
> CCn1c(=O)c(C)nc2cc(C(=O)Nc3ccc4c(c3)OCCCO4)ccc21
→ -1.1 | /
> O=C(O)c1ccc(NC(=O)C2CCCCC2)cc1
→ 0.1 | -0.21

New compounds follow.
The line under a structure holds: AID504770 | Ba CapD inh
> Cc1ccc2c(c1)-c1c(ssc1=S)C(C)(C)N2C(=O)CSc1nc2ccccc2o1
→ / | -1.1
> Cc1ccc(C2=NN=C(NC(=O)CSc3ccccc3)SC2)cc1
→ 0.4 | 0.14
> COc1ccccc1N=C(NO)c1ccccc1Cl
→ -0.75 | 0.09
> O=C(Nc1ccc(-c2cnco2)cc1)C1CC1
→ 0.15 | 1.6
> O=C(O)c1cc2c(s1)CCC2
→ 0.75 | 0.03
> Cc1nn(-c2ccccc2)c2c1C(c1ccsc1)SCC(=O)N2 (stereo not drawn)
→ 0.4 | -0.14
> CCOC(=O)c1cnc(Nc2nc3ccccc3o2)nc1CSc1ccc(Cl)cc1
→ -0.2 | -0.22
> CCOC(=O)c1cc2ccccc2[nH]1
→ 0.6 | 2.2
> CC(=O)c1sc2nsc(SCCN3CCOCC3)c2c1N
→ -0.1 | -0.74
> CCC(=O)c1c[nH]c(C(=O)Nc2ccc(OC)cc2)c1
→ 1.9 | -0.12
> COC(=O)c1cc(Br)cc(Br)c1
→ / | 0.38
> O=C1CCCN2N=C(SCC(=O)Nc3nccs3)SC2=N1
→ / | -0.59
> CSc1ccc(NC(=O)NCCCN2CCC(Cc3ccccc3)CC2)cc1
→ 0.75 | 0.12
> CC(C)n1ncc(C(N)=O)c1N
→ -0.5 | -0.39
> Cc1ccc(NC(=O)CSC2=NC(=O)C(Cc3ccccc3)C(=O)N2)cc1 (stereo not drawn)
→ / | -0.71
> C=CCn1c(COc2ccccc2)nnc1SC(C)C(=O)Nc1nccs1 (stereo not drawn)
→ -0.55 | /
> O=C(O)c1ccccc1NCc1ccncc1
→ -0.65 | 38
> COc1ccc(-c2nnc(SC(C)C(N)=O)o2)cc1 (stereo not drawn)
→ -0.6 | /
> Cc1cc(C)c2nc(N3CCCC(C(=O)N4CCN(c5ccccn5)CC4)C3)sc2c1 (stereo not drawn)
→ 0.7 | 2.4
> CC1CC(=O)Nc2ccccc2N1S(=O)(=O)c1ccc(-c2cc(C(F)(F)F)on2)s1 (stereo not drawn)
→ 0.5 | 0.035

Part of the list above in order of heavy-atom count, highest first:
The line under a structure holds: AID504770 | Ba CapD inh
> CCCCCC(=O)N1c2ccccc2C(N(C(=O)c2cccc(OC)c2)c2ccccc2)CC1C (stereo not drawn)
→ / | 0.17
> COc1cc(C(CC(=O)O)CC(=O)Nc2ccc(C)cc2)cc(OC)c1OC (stereo not drawn)
→ 0.8 | 0.4
> Cc1nn(-c2ccccc2)c2c1C(c1ccsc1)SCC(=O)N2 (stereo not drawn)
→ 0.4 | -0.14
> CNC(=O)COc1cccc2c1OC(C)(C)C2
→ 1.4 | /

Continued:
The line under a structure holds: AID504770 | Ba CapD inh
> CCOC(=O)C1CCCN(C(=O)c2ccc(C)cc2O)C1 (stereo not drawn)
→ 1.9 | /
> O=C(Cc1ccc(-c2ccccc2)cc1)NCc1nc(-c2ccccc2)no1
→ -0.8 | 0.66
> Cc1cc(C)cc(Nc2ncnc3nc[nH]c23)c1
→ -0.65 | /
> CC1CCN(S(=O)(=O)c2ccc3c(ccn3CC(=O)NCc3ccccc3)c2)CC1
→ -0.85 | -0.56
> N#Cc1c(C(F)(F)F)cc(C2CC2)[nH]c1=O
→ 0.65 | 76
> O=C(NC(=O)N1CCCC1)C1CCN(c2cnc3ccccc3n2)CC1
→ -1.1 | 1.6
> CN1C(=O)C(C)(C)c2cc(S(=O)(=O)N3CCCC3)ccc21
→ 1.6 | 0.23
> c1ccc(-c2cc(-c3nnco3)c3ccccc3n2)nc1
→ 0.55 | /
> CCCNC(=O)c1ccc(NC(=O)N2CCCCc3ccccc32)cc1
→ -0.95 | 0.52
> Cc1noc(C)c1COc1ccc(C(=O)OCC(=O)NC23CC4CC(CC(C4)C2)C3)cc1
→ -0.9 | /
> CCN(CC)CCCNc1nc(C)nc2c1nnn2Cc1ccccc1
→ -0.35 | /
> COC(=O)c1ccc(NC(=O)CCSc2ccccc2)cc1
→ -0.75 | -0.095
> O=C(Cn1cnc2ccccc2c1=O)NCCSCc1ccco1
→ -0.65 | /
> CC(C)(C)c1nc2scc(-c3ccc(Br)cc3)c2c(=O)o1
→ -0.3 | 0.23
> CC/C(=C(\c1ccccc1)c1ccc(OCCN(C)C)cc1)c1ccccc1
→ 0.15 | -0.46&-0.32
> Cc1nn(-c2ccccc2)c2sc(C(=O)N(Cc3ccccc3)Cc3ccccc3)cc12
→ 0.5 | -0.44

High-throughput results (PubChem BioAssay)
